Screening results deposited in PubChem BioAssay by National Center for Advancing Translational Sciences (NCATS).
Lassa entry inh – qHTS for Inhibitors of binding or entry into cells for Lassa Virus | Lassa virus pseudotype entry inhibition, cell reporter; control for the full effect not named in the record | Potency, µM (doses to about 37.9 µM), inactives show top-dose activity change, negative = inhibition, most hits filed as inhibitors | 300,000 tested, 1.2% active; active means well fitted inhibition curve with a large enough effect; inconclusive means small, poorly fitted or top-dose-only effect, or effect the other way; inactive means flat fitted curve, though single readings scatter; tested in HEK293 cells; note: % is set by controls: 0 for no effect and ±100 for the full control effect; nearly all actives have a fitted effect of over 50% in size; luciferase read-out
RE007 growth inh – qHTS Assay for Inhibitors of the HIV-1 protein Vpr. Potency, µM (series often up to 92.2 µM), for the others: at the top dose activity change, negative = less growth. S. pombe RE007 Vpr strain, BacTiter-Glo ATP luminescence, 24 h; control for the full effect not named in the record. 360,000 tested, 0.21% active; active = well fitted falling curve with a large enough effect; inconclusive = small, poorly fitted or top-dose-only effect; inactive = no such curve, though single readings can be large or run the other way;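 note: % is set by controls: 0 for no effect and ±100 for the full control effect; nearly all actives have a fitted effect of over 50% in size; the assay follows cell death caused by Vpr and the record does not say whether a fall means rescue or toxicity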
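Fission yeast strain RE007, carrying one chromosomally integrated HIV-1 vpr copy, was seeded at OD 0.01 in PMG+AL medium with 23 nL pinned compound. After 24 h at 30 °C and 99% humidity, viability was read by BacTiter-Glo luminescence.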
Cruzain inh noDet – qHTS Assay for Promiscuous and Specific Inhibitors of Cruzain (without detergent). Cruzipain (Trypanosoma cruzi), P25779. 200,000 tested, 2.3% active. Potency, µM, without a hit: max response, negative = inhibition, most hits filed as inhibitors. purified cruzain, Z-FR-AMC fluorescence, no detergent;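 note: plate controls were enzyme without inhibitor for no effect and buffer without enzyme for full effect; nearly all actives have a fitted effect of over 40% in size; top concentration of the series not given in the record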
Target sequence (P25779 123-467 limits assumed): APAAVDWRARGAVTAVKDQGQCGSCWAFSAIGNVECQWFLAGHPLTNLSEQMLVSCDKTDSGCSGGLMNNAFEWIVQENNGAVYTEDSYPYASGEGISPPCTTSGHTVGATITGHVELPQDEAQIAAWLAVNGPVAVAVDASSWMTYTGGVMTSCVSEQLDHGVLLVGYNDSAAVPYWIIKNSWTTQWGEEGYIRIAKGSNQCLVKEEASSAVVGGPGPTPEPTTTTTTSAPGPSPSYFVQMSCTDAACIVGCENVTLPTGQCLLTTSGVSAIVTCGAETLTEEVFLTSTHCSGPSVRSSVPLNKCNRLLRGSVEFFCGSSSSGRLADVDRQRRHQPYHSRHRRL
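Detergent-free condition (0.00005% Triton X-100) in acetate buffer pH 5.5 with DTT. 1.5 nM enzyme and compound were pre-mixed 15 min, then 2 uM Z-FR-AMC substrate added; reaction progress from fluorescence change between first and third reads (60 s).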
StopGo reporter – High Throughput Screening for Foot and Mouth Disease Virus Antivirals. human cells with a luciferase reporter of 2A StopGo recoding; control for the full effect not named in the record. Potency, µM (doses to about 57.9 µM), for inactives: at the highest dose signal change, negative = less light. 410,000 tested, 1.2% active; active = well fitted falling curve with a large enough effect; inconclusive = small, poorly fitted or top-dose-only effect; inactive = no such curve, though single readings can be large or run the other way; tested in HEK293T cells; note: % is set by controls: 0 for no effect and ±100 for the full control effect; nearly all actives have a fitted effect of over 45% in size; luciferase light after 4 h
MARV entry inh – qHTS for inhibitors of binding or entry into cells for Marburg Virus; Marburg virus pseudotyped entry inhibition, cell reporter; control for the full effect not named in the record; about a third of the inactives were read at about 46 µM; Potency, µM (doses to about 37.8 µM), for inactives: at the highest dose activity change, negative = inhibition, hits mostly inhibitors; 300,000 tested, 1.8% active; active = well fitted inhibition curve with a large enough effect; inconclusive = small, poorly fitted or top-dose-only effect, or effect the other way; inactive = flat fitted curve, though single readings scatter; tested in HEK293 cells; about a fifth of its hits are not listed in these tables; note: % is set by controls: 0 for no effect and ±100 for the full control effect; luciferase read-out
NS1 inh – qHTS Assay for Inhibitors of Influenza NS1 Protein Function; S. cerevisiae slowed by influenza A NS1, growth recovery by OD600; Potency, µM (doses to about 46.1 µM), without a hit: at the top dose activity, positive = more growth; 270,000 tested, 0.4% active; AID 2326, 2010; active means well fitted rising curve with a large enough effect; inconclusive means small, poorly fitted or top-dose-only effect; inactive means no such curve, though single readings can be large or run the other way; note: nearly all actives have a fitted effect of over 50% in size
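Recovery from NS1-induced slow growth read by OD600 in budding yeast switched to galactose assay medium (pH 6.0, -URA) at 1:100 dilution. Compound 23 nl per well; the matching strain lacking NS1 serves as control.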
SARS PLpro yeast – qHTS of Yeast-based Assay for SARS-CoV PLP | S. cerevisiae expressing SARS-CoV PLpro, growth rescue; control for the full effect not named in the record | Potency, µM (top dose mostly 32.9 µM), for inactives: at the top dose activity, positive = growth rescue | 330,000 tested, 0.19% active; active means well fitted rising curve with a large enough effect; inconclusive means small, poorly fitted or top-dose-only effect; inactive means no such curve, though single readings can be large or run the other way; note: 0% is about no effect; nearly all actives have a fitted effect of over 55% in size; growth read by luminescence after 48 h
Cruzain Triton – qHTS Assay for Promiscuous and Specific Inhibitors of Cruzain (with detergent); Potency, µM, without a hit: max response, negative = inhibition, usual class: inhibitors; AID 1478, 2009; purified cruzain, Z-FR-AMC fluorescence, 0.01% Triton; Cruzipain (Trypanosoma cruzi), P25779; 200,000 tested, 0.43% active;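 note: plate controls were neutral wells for no effect and buffer without enzyme for full effect; nearly all actives have a fitted effect of over 40% in size; top concentration of the series not given in the record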
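Z-FR-AMC hydrolysis (2 uM substrate) by cruzain (1.5 nM) monitored kinetically at ex 360/em 450 nm after 15 min room-temperature compound exposure; 0.01% Triton X-100, pH 5.5, 5 mM DTT.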
Numbers without * were called inactive; ? = inconclusive; . = not tested or not shown; [ ] = another dose, or the depositor's remark. Unless noted, calls come from the whole dose curve; as a rule, active = well fitted curve in the direction sought with a large enough effect; inconclusive = small, poorly fitted or top-dose-only effect, or another doubt; inactive = no such curve, though single readings can be large; an effect the other way counts as inactive or inconclusive. Potency is the fitted concentration of half-maximal effect.

SMILES	Lassa entry inh	RE007 growth inh	Cruzain inh noDet	StopGo reporter	MARV entry inh	NS1 inh	SARS PLpro yeast	Cruzain Triton
O=C1CC(c2ccco2)Cc2c1cnn2-c1nc2ccccc2s1 (stereo not given)	-3%	1%	-5%	0%	29%	2%	1%	-7.2%
CCn1c(SCC(=O)Nc2ccc(OC)c(OC)c2)nc2c(c1=O)SCC2	10%	-21%	.	-6%	20%	1%	-4%	.
Cc1ccc(CSc2ncnc3c2cnn3-c2ccc(C)cc2)cc1	7%	10%	-22%	11%	?	-4%	1%	-4.6%
CN(C(=O)COC(=O)c1cc2c(s1)CCCCC2)c1ccccc1	-28%	5%	.	5%	1%[46.1 µM]	.	-2%	.
CC1Cc2cccc3c(O)c(C(=O)c4nn[nH]n4)c(=O)n1c23 (stereo not given)	1%	-20%	19%	-2%	-1%	21%	-6%	-5.5%
CC(C)Sc1nnc([C@@H](N)Cc2ccccc2)o1	7%	13%	-8%	0%	1%	?	10%	0.3%
O=[N+]([O-])c1ccc(-n2cnc3ccccc32)c([N+](=O)[O-])c1	-8%	-1%	.	-15%	-13%	.	-5%	.
COc1ccc(Cl)cc1C(=O)OCC(=O)N(C)CC(=O)Nc1ccc(F)cc1	-5%	35%	.	-14%	7%	.	2%	.
O=C(COc1ccc2c(c1)OCO2)Nc1cccc(F)c1	2%	-10%	.	42%[activator]	30%[46.1 µM]	-33%	-1%	.
COc1ccc(-n2c(/C=C/c3cccc(C(F)(F)F)c3)nc3ccccc3c2=O)cc1Cl	-3%[46.1 µM]	.	-4%	-29%	.	.	.	0.2%
Cc1[nH]n2c(=O)c3c(nc2c1-c1ccc(Cl)cc1)CCC3	-14%	25%	5%	-22%	-16%	-8%	1%	4.4%
Cn1c(=O)[nH]c(=O)c2c1nc1n2CCN1Cc1ccccc1	0%	-14%	2%	9%	15%	-2%	-8%	3.1%
Cc1cc(NC(=O)c2ccccc2)no1	?	14%	.	61%[activator]	?	-3%	-1%	.
O=S(=O)(NCC(c1cccnc1)N1CCN(c2ccccc2)CC1)c1cccs1 (stereo not given)	-4%	-6%	-5%	-14%	-7%	-10%	-23%	2.9%
COc1nc(N)nc2nc[nH]c12	.	3%	.	0%	.	3%	-2%	.
CC1CC(OCC(O)CN2CCCCC2C)CC(C)(C)C1 (stereo not given)	?	4%	.	-11%	?	-2%	1%	.
N#Cc1c[nH]n2c(=O)cc(Cc3ccccc3)nc12	?	-7%	1%	7%	3%	2%	4%	4.9%
COc1ccc(N2CCN(c3csc4ccc(Cl)cc4c3=O)CC2)cc1	-1%[46.1 µM]	.	-1%	-15%	.	.	.	-5.6%
CCC1CCCCN1C(=O)CSc1nc2c(c(=O)n1C)SC(C)C2 (stereo not given)	-11%	-1%	.	-3%	?	-21%	-3%	.
CCCCn1cc(S(=O)(=O)c2ccccc2)c(=O)c2cc(C)ccc21	.	21%	.	15%	.	-4%	10%	.
CC/C(=N\NC(=O)C1CCCC1)c1cccc(Br)c1	-27%[46.1 µM]	3%	.	-2%	-3%[46.1 µM]	-6%	3%	.
Cc1ccc(S(=O)(=O)N2CCCCCC2)cc1C(=O)NCc1ccccn1	-6%[46.1 µM]	-5%	.	6%	5%[46.1 µM]	6%	3%	.
Cc1cccc(NC(=O)CNC(=O)Cn2ncc(Cl)c(Cl)c2=O)c1C	?	-15%	.	22µM*	?	.	8%	.
OCCC1CN(Cc2cccc3c2OCO3)CCN1C1CCCC1 (stereo not given)	?	-3%	.	-3%	4%[46.1 µM]	1%	0%	.
O=C(Cc1csc(NC(=O)Nc2ccc(Cl)cc2)n1)NC1CCCC1	-27%	-14%	.	-10%	?	.	-6%	.
O=c1[nH]cnc(O)c1Nc1cccc(Cl)c1	17%[46.1 µM]	-4%	.	24%	-11%[46.1 µM]	.	.	.
O=C(NC(NC(=S)Nc1c(Cl)cccc1Cl)C(Cl)(Cl)Cl)c1cccc([N+](=O)[O-])c1 (stereo not given)	?	3%	-19%	-8%	?	7%	22%	-7.2%
O=C1N/C(=N\c2ccccn2)SC1Cc1ccccc1Cl (stereo not given)	.	0%	.	13%	.	5%	1%	.
Cc1ccccc1-n1c(SCC(=O)NC2CCS(=O)(=O)C2)nc2ccccc2c1=O (stereo not given)	1%	9%	.	?	-2%	.	1%	.
O=C(NN=C1CCN(Cc2ccccc2)CC1)c1ccccc1O	-12%	-11%	.	31%[activator]	-4%[46.1 µM]	.	?	.
Cc1ccc2c(COC(=O)C3CSC4(C)CCC(=O)N34)cc(=O)oc2c1C (stereo not given)	-1%	4%	.	13%	15%	.	9%	.
Cc1ccc(C(=O)NCC(=O)OC2CCCCC2=O)cc1C (stereo not given)	18%[46.1 µM]	-23%	.	13%	?	.	4%	.
COc1ccc(C(=O)C2CCCN(C(=O)c3cc(C)nc(C)n3)C2)cc1OC (stereo not given)	-1%[46.1 µM]	-6%	.	19%	0%[46.1 µM]	1%	0%	.
O=C(NCCC1=CCCCC1)c1ccc(Cl)c([N+](=O)[O-])c1	?	-3%	-1%	36%[activator]	5%	-48%	-28%	-1.4%
COc1ccc(S(=O)(=O)N2CCN(C)CC2)cc1NC(=O)c1ccccc1	7%	97%	.	21%	-3%[46.1 µM]	4%	-7%	.
c1coc(Cn2c(SCc3nc4ccccc4[nH]3)nnc2-c2cnccn2)c1	-2%	-5%	-23%	?	-4%	-2%	-6%	-1.9%
COc1ccc(-c2nnc3sc(-c4ccccn4)nn23)cc1	.	.	-9%	.	.	-29%	0%	2.1%
CCCc1nnc(NC(=O)C2CC(=O)N(C3CCCC3)C2)s1 (stereo not given)	14%	6%	.	6%	-1%[46.1 µM]	-5%	-1%	.
O=[N+]([O-])c1ccccc1S(=O)(=O)Nc1cccc(-c2ccc(N3CCCC3)nn2)c1	0%	-25%	.	60%[activator]	5%	.	-5%	.
O=C(c1ccco1)N1CCN(C(=O)c2ccc(COc3ccc(F)cc3)o2)CC1	?	-17%	23%	-28%	15%	-30%	-6%	-1.7%
CCOC(=O)N1CCN(CC(O)COC2CC(C)CCC2C(C)C)CC1 (stereo not given)	-29%	26%	16%	-26%	-20%	-14%	-3%	2.4%
ON=C(CCc1ccccc1)CCc1ccccc1	?	?	.	-15%	-8%	.	.	.
O=C(O)c1cc(S(=O)(=O)NCCN2CCNC2=O)ccc1O	?	5%	.	7%	-2%[46.1 µM]	-6%	2%	.
Cc1cnc(CNC(=O)CC2C(=O)NCCN2Cc2ccccc2F)cn1 (stereo not given)	.	-9%	.	-8%	.	-3%	-4%	.
COc1ccc(N2C(=O)CS(=O)(=O)C23C(=O)N(Cc2cccc(F)c2)c2ccccc23)cc1OC (stereo not given)	-2%[46.1 µM]	.	-8%	-18%	.	.	.	-3.6%
CCN1CCN(C(=O)c2c(-c3c(F)cccc3Cl)noc2C)CC1	18%	6%	-13%	-5%	17%	2%	12%	5.9%
CCCN1CCC(NC(=O)CCc2nnc(-c3ccccc3)o2)CC1	15%[46.1 µM]	10%	.	-8%	?	-3%	-1%	.
COc1cc(NC(=O)C2=CC(c3ccc(C)cc3)=NS(=O)(=O)N2C)cc(OC)c1OC	.	-17%	.	0%	.	-16%	2%	.
CCOc1ccc(NC(=S)NCC(c2cccnc2)N2CCOCC2)cc1 (stereo not given)	-6%	-3%	.	-8%	10%	.	1%	.
COc1cc(SC)ccc1C(=O)Nc1nccs1	?	-4%	.	-47%	?	-6%	-2%	.
O=c1c(CO)cc(CO)cc(CO)c1O	.	20%	.	-16%	.	-1%	-5%	.
Cc1cc(O)c(C(=O)/C=C/c2ccc(C(C)C)cc2)c(=O)o1	.	0%	.	1%	.	-16%	1%	.
CCN(CC)C(=O)CSc1nc(O)cc(=O)n1CC	-2%	-11%	-9%	-4%	1%	?	-4%	-0.2%
O=C(c1cc(Cl)ccc1[N+](=O)[O-])n1cnc2ccccc21	?	-24%	-3%	0%	?	3%	7%	-5.1%
Cc1ccc2c(c1)C(=O)C(=O)N2Cc1ccc(OC(C)C)cc1	?	.	?	-9%	?	.	.	-5.9%
CC1CC(C)CN(CCCNC(=O)c2ccc3nc(N4CCOCC4)sc3c2)C1 (stereo not given)	.	-7%	.	-1%	.	-26%	-4%	.
CN(C)CC(O)COc1cc2ccccc2cc1C(=O)N1CCCCC1 (stereo not given)	-1%	0%	3%	1%	-17%	-12%	-3%	3.7%
CS(=O)(=O)N1CCc2cc(C(=O)Nc3ccccc3)ccc21	6%[46.1 µM]	10%	.	1%	?	3%	0%	.
O=C(O)/C=C/C(=O)NC1CC1	17%[46.1 µM]	2%	.	-13%	0%[46.1 µM]	.	2%	.
CCN(CC)CCOc1cccc(C(C)C)c1	-15%	19%	3%	-12%	4%	8%	-4%	2.3%

Next part.
SMILES	Lassa entry inh	RE007 growth inh	Cruzain inh noDet	StopGo reporter	MARV entry inh	NS1 inh	SARS PLpro yeast	Cruzain Triton
C#CCSc1ncc(S(=O)(=O)c2ccccc2)c(=O)[nH]1	27%[46.1 µM]	-6%	.	0%	17%[46.1 µM]	.	2%	.
O=C(CSc1nncs1)N1c2ccccc2Sc2ccccc21	-3%	14%	?	.	2%	-5%	-2%	5.4%
NC(=O)NC(CC(=O)NNC(=O)c1cccs1)c1ccc(Cl)cc1 (stereo not given)	9%	-8%	.	4%	21%	.	-5%	.
O=c1c(Cc2ccc(F)cc2)c(O)ccn1CCCN1CCOCC1	3%	-12%	.	1%	-8%	1%	0%	.
O=C(c1cc(C2CC2)on1)N1CCOCC1	.	-4%	-8%	-11%	.	-7%	-2%	-1.0%
